High-throughput results from PubChem.
miR-21 reporter: miR-21 reporter, rising signal; HeLa miR-21 FLuc reporter, luciferase, 48 h; Potency, µM (series often up to 38.3 µM), without a hit: at the highest dose reporter change, positive = more light; 340,000 tested, under 10 active; AID 2288; active = well fitted rising curve with a large enough effect; inconclusive = small, poorly fitted or top-dose-only effect; inactive = no such curve, though single readings can be large or run the other way;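 note: % of control where 0% means no effect; miR-21 action dims this reporter so a rising signal means less miR-21 action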
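HeLa cells endogenously expressing miR-21, stably carrying CMV-driven firefly luciferase with a downstream miR-21 binding site, 2000 cells/well. Titrations up to approximately 40 uM, 48 hours; luciferase luminescence read.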
Numbers without * were called inactive; ? = inconclusive.

SMILES	miR-21 reporter
COc1ccc(C(=O)Nc2cc(S(=O)(=O)c3ccc(Cl)cc3)c(O)c(C)c2C)cc1	-22%
Nc1c(C(=O)NCc2ccc(Cl)cc2Cl)nnn1Cc1ccc(Br)cc1	18%
Cc1ccc(Cn2c(C)c(CNCC(C)c3ccccc3)c(C(=O)O)c2C)cc1 (stereo unspecified)	9%
COc1ccccc1C(=O)Nc1nnc2n1CCS2	-42%
CCOc1ccc(-n2c(SC(C)C(=O)OC)nc3c([nH]c4ccccc43)c2=O)cc1 (stereo unspecified)	0%
COC(=O)c1c(NC(=O)CCCOc2ccccc2C)sc2c1CCC2	-4%
COc1ccc(C)cc1NS(=O)(=O)c1c(C)nc2sc(C)cn2c1=O	6%
Cc1ccc(O)c(NC(=O)c2cc(-c3ccccc3O)no2)c1	16%
CCOc1ccc(-c2n[nH]c3c2C(c2ccccc2OC)N(c2ccc(Br)cc2)C3=O)cc1 (stereo unspecified)	2%
O=C1c2[nH]nc(-c3ccccc3O)c2C(c2ccccc2F)N1Cc1cccnc1 (stereo unspecified)	-29%
CC(C)c1ccc(NC(=O)C(NS(=O)(=O)c2ccc3c(c2)CCC(=O)N3)c2ccccc2)cc1 (stereo unspecified)	-12%
O=C(c1ccc2c(c1)N(Cc1ccccc1F)C(=O)c1ccccc1S2=O)N1CCC(Cc2ccccc2)CC1 (stereo unspecified)	22%
O=C(NCc1ccccc1Br)c1ccc2nc(N3CCCCC3)sc2c1	-25%
O=C(c1ccc(F)cc1)n1nc(-c2ccccc2)nc1NCc1ccco1	-42%
COc1cc(OC)c(NC(=O)C2=C(C)C(=O)OC23CCCCC3)cc1Cl	-9%
Cc1ccc(-c2ccc(=O)n(CC(=O)NC(C)c3ccccc3)n2)cc1 (stereo unspecified)	1%
CC(C)c1ccc(NC(=O)CN2C=NS(=O)(=O)c3ccccc32)cc1	-1%
COc1ccc(-c2cn3c(n2)sc2cc(C(=O)Nc4ccc(C)cc4C)ccc23)cc1	-4%
COc1ccccc1N1CCN(C(=O)CSc2nc3ccccc3nc2Cc2ccccc2)CC1	9%
Cc1ccc(NC(=O)c2ccc3c(c2)NC(=O)c2ccccc2S3)cc1	?
O=C(NCCc1csc(-c2ccc(C(F)(F)F)cc2)n1)c1ccccc1Cl	4%
O=c1c(N2CCN(c3ccc(F)cc3)CC2)csc2ccc(F)cc12	-13%
CCOc1ccc(CCNC(=O)C2Cc3ccccc3N2C(=O)CC)cc1 (stereo unspecified)	6%
Cc1ccc(S(=O)(=O)C(CNC(=O)C(=O)NCCc2ccccc2)c2ccco2)cc1 (stereo unspecified)	12%
COc1ccc(CCNC(=O)c2ccc3c(c2)CCN3S(C)(=O)=O)cc1OC	-5%
SMILES	miR-21 reporter
CCC(=O)N1CCc2cc(Br)cc(S(=O)(=O)CCC(=O)N3CCN(c4cccc(C(F)(F)F)c4)CC3)c21	-4%
Cc1ccc2c(c1)-c1cc(C)nn1C(c1cc(Br)ccc1O)N2 (stereo unspecified)	-29%
Cc1ccc(-c2nc(NC(=O)CSc3ncnc4sc5c(c34)CCC(C)C5)ns2)cc1 (stereo unspecified)	0%
CCN(c1ccc(C)cc1C)S(=O)(=O)c1nnc(NC(=O)c2ccc(F)cc2)s1	-8%
Cc1cc(NC(=O)NCc2ccc3c(c2)CCN3C(=O)c2ccccc2)ccc1Br	2%
CC1=C(C(=O)OCC2CCCCC2)C(c2ccccc2F)CC(=O)N1 (stereo unspecified)	-1%
CC(=O)N1CCc2cc(Br)cc(S(=O)(=O)CCC(=O)NCc3ccc(F)cc3)c21	-1%
Cc1oc2ncn(C)c(=O)c2c1C(=O)NCc1ccc(Cl)cc1	3%
Cn1c(=O)c2c(nc(N3CCOCC3)n2Cc2ccccc2Cl)n(C)c1=O	0%
COc1cc(NC(=O)c2ccc(C)c(Cl)c2)ccc1NC(=O)c1cc2ccccc2o1	3%
COc1cccc(N2CCN(C(=O)C3CCC(CNS(=O)(=O)c4ccc(Br)s4)CC3)CC2)c1 (stereo unspecified)	24%
CCOC(=O)N1CCN(C(=O)CN(c2ccc(C)cc2C)S(=O)(=O)c2ccccc2)CC1	-5%
Cc1sc2ncn(CC(=O)N3CCN(c4ccc(F)cc4)CC3)c(=O)c2c1S(=O)(=O)N1CCCCC1	16%
COc1ccccc1Cn1c(SCC(=O)C(C)(C)C)nc2ccccc2c1=O	19%
CCCC(=O)Nc1ccc2c(c1)nc(CN1CCN(C(=O)OCC)CC1)n2C(C)C	2%
Cc1ccc(-c2nc(C)c(CCNC(=O)C(=O)Nc3cc(C)ccc3C)s2)cc1	-10%
CCOc1ccc(C2CC(=O)c3c([nH]c(C(=O)OCCOc4ccccc4)c3C)C2)cc1 (stereo unspecified)	5%
COc1ccccc1N1CCN(c2ncnc3c2cnn3C)CC1	-3%
CCOC(=O)c1cccc(NC(=O)c2cnc3sc(N4CCOCC4)nn3c2=O)c1	0%
COc1cccc(/C=C/C(=O)Nc2ccc3nc(N4CCN(C)CC4)cc(C)c3c2)c1OC	-37%
CCOc1ccc(NC(=O)CSc2nc3c(oc4ccccc43)c(=O)n2CCOC)cc1	-1%
Cc1cccc(C)c1Nc1c(-c2cccs2)nc2ncccn12	5%
COC(=O)CC1Oc2ccccc2-n2cc(-c3ccc(C)cc3)nc21 (stereo unspecified)	-15%
Cc1ccc2occ(CC(=O)Nc3c(C)cccc3C)c2c1	18%
CCc1cccc(NC(=O)c2cnc(SC)nc2-c2ccccc2)c1	9%

Reprinted from the part before: 5 entries; new compounds follow.
SMILES	miR-21 reporter
CCOc1ccc(NC(=O)CSc2nc3c(oc4ccccc43)c(=O)n2CCOC)cc1	-1%
Cc1cccc(C)c1Nc1c(-c2cccs2)nc2ncccn12	5%
COC(=O)CC1Oc2ccccc2-n2cc(-c3ccc(C)cc3)nc21 (stereo unspecified)	-15%
Cc1ccc2occ(CC(=O)Nc3c(C)cccc3C)c2c1	18%
CCc1cccc(NC(=O)c2cnc(SC)nc2-c2ccccc2)c1	9%
CCS(=O)(=O)c1ncc(Cl)c(C(=O)N2CCN(c3cccc(Cl)c3)CC2)n1	?
CCC(=O)N1CCc2cc(S(=O)(=O)CCC(=O)Nc3ccc(OC(F)(F)F)cc3)ccc21	10%
CCCCN(CCCC)C(=O)CN(C)S(=O)(=O)c1ccc2c(c1)c(=O)n(C)c(=O)n2C	-3%
Cc1ccc(S(=O)(=O)c2cn(Cc3ccccc3)c3cc(N4CCCC4)c(F)cc3c2=O)cc1C	3%
Cc1cc(NCc2ccc(Cl)cc2)n2cnnc2n1	22%
CC1CN(C(=O)CCC(=O)NCc2cccc(Cl)c2)c2ccccc2S1 (stereo unspecified)	8%
COc1cccc(C2c3c(oc4cc(C)cc(C)c4c3=O)C(=O)N2CCc2ccc(OC)c(OC)c2)c1 (stereo unspecified)	1%
COc1cc(OC)c(NC(=O)CN(C)S(=O)(=O)c2ccc3c(c2)CCCC(=O)N3)cc1Cl	15%
Cc1oc2c(c(C)cc3oc(=O)c(CC(=O)NCCc4ccc(Cl)cc4)c(C)c32)c1C	1%
Cc1ccc(N2CC(NC(=O)CCCc3ccccc3)CC2=O)cc1 (stereo unspecified)	3%
Cc1sc2c(c1C)c(=O)n(-c1ccccc1)c(=O)n2CC(=O)c1ccc(Cl)cc1	4%
COC(=O)c1cc2oc(C)cc2n1Cc1cc(C)ccc1C	0%
CCc1ccc(NC(=O)Cn2c3ncccc3c(=O)n2-c2ccc(C)c(C)c2)cc1	-2%
COc1ccc2c(c1)c1c(c(=O)n(CCc3ccccc3)c(=O)n1Cc1ccc(Cl)cc1)n2C	3%
CCOC(=O)c1c(Nc2ccccc2)nnc(-c2ccccc2)c1-c1ccccc1	?
COc1ccc(NC(=O)Cn2c(=O)n(CCC(=O)NCCc3ccc(OC)c(OC)c3)c(=O)c3ccccc32)cc1Cl	0%
CCN(C(=O)C1CCN(S(=O)(=O)c2ccc3c(c2)CCCN3C(C)=O)CC1)c1cccc(C)c1	-1%
CCc1ccccc1Nc1nn2c(=O)c3ccc(C(=O)NCc4ccc(C)cc4)cc3nc2s1	16%
COC(=O)c1ccc(NC(=O)CN2C(=O)c3cccc4cccc2c34)cc1	-4%
COC(=O)c1cc(OC)c(OC)c(OC)c1NC(=O)c1cc(=O)n(C)c(=O)n1C	2%
O=c1c2ccccc2nc2sc(Nc3cccc(C(F)(F)F)c3)nn12	0%
CCn1cc(C(=O)NC2CCCc3c2cnn3-c2cccc(C)c2C)cn1 (stereo unspecified)	20%
COc1ccc(C2CC(=O)N(Cc3ccccc3C)c3c2c(C)nn3-c2nc(C)cc(C)n2)c(OC)c1 (stereo unspecified)	-12%
COc1ccc(-n2nnc(-c3nc(-c4cccs4)no3)c2N)cc1	-31%
O=C(CSCc1ccc(F)cc1)N1CCc2c([nH]c3ccccc23)C1c1ccc(Cl)cc1 (stereo unspecified)	28%
SMILES	miR-21 reporter
COc1ccc(S(=O)(=O)N2CCN(CC(=O)Nc3ccc(Cl)c(C(F)(F)F)c3)CC2)cc1	?
CCCCCNS(=O)(=O)c1ccc(N2CCCCS2(=O)=O)cc1	15%
COc1ccc(S(=O)(=O)Nc2ccc(-c3cn4c(C)csc4n3)cc2)cc1	-6%
COc1ccc(C2c3c(oc4ccccc4c3=O)C(=O)N2c2nc(C)c(C)s2)cc1 (stereo unspecified)	0%
Cc1ccc(C2=NN(CC(=O)NCCc3ccccc3)C(=O)CC2)cc1	-6%
CCOc1ccc(NC(=O)c2nn(C)c3c2COc2ccccc2-3)cc1	-39%
CCn1c2ccccc2c2cc(CN3CCN(Cc4ccc(Br)cc4)CC3)ccc21	21%
CCOC(=O)c1c(-c2ccccc2)csc1NC(=O)c1cc(-c2cccc(OC)c2)on1	3%
COc1ccccc1CNc1nc2c(S(=O)(=O)c3ccccc3)nnn2c2ccc(Cl)cc12	-5%
CCCNC(=O)C1CCC(Cn2c(=O)c3sccc3n(CC(=O)N3CCCC3)c2=O)CC1 (stereo unspecified)	-2%
CCCCOc1ccc(CN2C(=O)C(=O)c3cc(Br)cc(C)c32)cc1OC	?
CCc1nn(Cc2c(C)cc(C)cc2C)c(=O)c2cc3cc(C)ccc3n12	-1%
CCOc1ccc(NC(=O)CSc2nc3ccsc3c(=O)n2CC)cc1	6%
CCn1c(=O)c2sccc2n2c(CCC(=O)Nc3cc(C)cc(C)c3)nnc12	0%
CCOC(=O)C1=C(CS(=O)(=O)c2ccc(OC)c(Cl)c2)NC(=O)NC1c1cccc(OC)c1 (stereo unspecified)	4%
CC(=O)N1CCc2cc(S(=O)(=O)NC(Cc3ccccc3)C(=O)Nc3cccc(C)c3)ccc21 (stereo unspecified)	20%
Clc1ccccc1CSc1nc(NCCc2ccccc2)c2ccccc2n1	2%
CCN1CCN(C(=O)Cn2ncc3c4ccccc4n(Cc4ccccc4)c3c2=O)CC1	8%
CC(=O)c1cccc(NC(=O)Cn2cnc3c2c(=O)n(C)c(=O)n3C)c1	-3%
CCOc1ccccc1CNC(=O)c1ccc2c(c1)nc1n2CCCCC1	-2%
O=C(Nc1cccc(C(F)(F)F)c1)N1CCC(CN2CCCCCC2)CC1	-3%
COc1ccc(CCNC(=O)c2cc(Nc3cc(C)cc(C)c3)nc3ccccc23)cc1OC	21%
COc1ccccc1CCNC(=O)C(=O)NCC(c1ccco1)S(=O)(=O)c1ccc(C)cc1 (stereo unspecified)	21%
CCc1cccc(NC(=O)c2ccc3c(c2)c(C)c(C)n3Cc2ccc(F)cc2)c1	15%
Cc1c(CCNC(=O)c2ccc(Br)o2)sc2nc(-c3ccc(Cl)cc3)nn12	16%
SMILES	miR-21 reporter
CSc1nc(=O)c2c(n1C)NC(=O)CC2c1cc(F)cc(F)c1 (stereo unspecified)	5%
COc1cccc(NC(=O)c2cn(C3CCCCC3)c(=O)c3c2c2ccccc2n3C)c1	11%
CCOC(=O)c1c(C)oc2nc(C)nc(Nc3ccc(CC)cc3)c12	-6%
COc1ccc(-n2ncc(C(=O)N3CCN(c4ncccn4)CC3)c2C2CCN(C(=O)OC(C)(C)C)CC2)cc1	-3%
CC(=O)N1CCCc2cc(S(=O)(=O)NCc3ccc(OC(C)C)cc3)ccc21	9%
COc1ccc(Cl)cc1NC(=O)CSc1nnc2[nH]c(=O)cc(-c3ccccc3)n12	-1%
Cc1cc(C)cc(NCc2nnc3n2CCCCC3)c1	-1%
Cc1cc(NC(=O)CSc2ncc(C(=O)Nc3ccc(F)cc3)c(=O)n2C)no1	2%
Cc1ccc(C)c(N2CCN(C(=O)Cn3cnc4onc(-c5ccc(F)cc5)c4c3=O)CC2)c1	0%
CCOC(=O)c1c(-c2ccc(C)cc2)csc1NC(=O)c1cc(=O)c2cc(C)c(C)cc2o1	0%

A draw from above in order of molecular weight, ascending.
SMILES	miR-21 reporter
Cc1cc(C)cc(NCc2nnc3n2CCCCC3)c1	-1%
COc1cccc(NC(=O)c2cn(C3CCCCC3)c(=O)c3c2c2ccccc2n3C)c1	11%
Cc1ccc(C)c(N2CCN(C(=O)Cn3cnc4onc(-c5ccc(F)cc5)c4c3=O)CC2)c1	0%
COc1ccc(-n2ncc(C(=O)N3CCN(c4ncccn4)CC3)c2C2CCN(C(=O)OC(C)(C)C)CC2)cc1	-3%

Not all compounds are listed. The share of hits here may be higher or lower than overall.
